# Vif TR-FRET = inhibitors of Vif binding to APOBEC3G peptide, primary screen, biochemical, TR-FRET, GST-Vif 1-94, biotin-A3G peptide, dose response retest (AID 1117319); TR-FRET GST-Vif / biotin-A3G peptide binding; higher % means a stronger effect; test concentration not given here; strong numbers were not always called active; inhibition, %, or IC50 in µM where a hit was titrated; 260,000 compounds, 0.57% hits;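 active = above the screen mean plus three standard deviations and confirmed in dose response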;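 note: Vif residues 1-94 fused to GST binding biotinylated APOBEC3G peptide 110-148; 0% = full assay without inhibitor and 100% = GST in place of GST-Vif; retest series ran down from 100 µM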
# E coli growth = inhibitors of Escherichia coli growth. OD600, 23 h; stronger effect = lower value. OD600 absorbance (test concentration not listed). 330,000 compounds, 0.21% hits;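 active = OD600 absorbance below the run mean of sample wells minus 3.6 SD, in any replicate, cut at about 0.56 in these data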;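 note: stock transfer was 300 nL into about 60 µL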
# Ecoli rRNA inh = inhibits bacterial ribosomal RNA function over humanized ribosomes. AID 720706. GFP signal change (wild-type ribosome), % (no concentration beside the values). E. coli WT GFP vs humanized-ribosome RFP mutants, fluorescence, 24 h; stronger effect = lower value; DMSO median 0, no signal -100. 350,000 compounds, 1.6% hits;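 active = significant combined selectivity score with lowered wild-type GFP, culture density cut under 30%, mutant RFP and density less affected; inactive = any of these conditions unmet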; note: one replicate is shown; some compounds called inactive have numbers as strong as hits
# ALR H2O2 inh = human ALR oxidase inhibition via reduced H2O2 | 290,000 compounds, 3.8% hits | inhibition, % (concentration not given with the values) | AID 485317 | purified ALR, DTT oxidation, H2O2 HRP-luminol luminescence;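 active = mean and each replicate at 75% or more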;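 note: stock transfer was 7.5 nL into about 7.5 µL; 0% = neutral wells and 100% = wells with inactivated enzyme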
# HNF4A DNA FP = change in binding of human HNF4 alpha to DNA. HNF4a-FITC DNA binding, fluorescence polarization, 1 h. activity change, % at 10 µM. 360,000 compounds, 0.3% hits; in the data active = activity change above about 30%, passing the limit was not always enough;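 note: controls were the assay level and a saturating level of protein; the project sought stronger binding though the title names inhibitors; some compounds called inactive have numbers as strong as hits; positive values seem to mean higher polarization but the record does not say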
# Target sequence (P41235 whole entry, looked up): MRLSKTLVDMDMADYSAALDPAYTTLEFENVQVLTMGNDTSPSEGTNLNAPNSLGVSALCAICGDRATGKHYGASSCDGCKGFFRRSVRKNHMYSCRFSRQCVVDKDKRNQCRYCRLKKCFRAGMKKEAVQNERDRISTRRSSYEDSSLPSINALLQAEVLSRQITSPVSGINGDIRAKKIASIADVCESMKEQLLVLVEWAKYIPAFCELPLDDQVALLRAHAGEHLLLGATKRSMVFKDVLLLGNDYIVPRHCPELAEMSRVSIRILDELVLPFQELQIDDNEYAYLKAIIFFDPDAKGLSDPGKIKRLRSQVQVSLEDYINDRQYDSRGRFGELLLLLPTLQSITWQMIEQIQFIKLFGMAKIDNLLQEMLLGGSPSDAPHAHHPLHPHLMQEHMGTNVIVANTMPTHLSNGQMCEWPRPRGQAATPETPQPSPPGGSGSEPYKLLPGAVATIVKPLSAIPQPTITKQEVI
# AF4-AF9 inh = MLL-AF4/AF9 protein interaction inhibition | P42568 | AlphaScreen, biotin-AF4 peptide binding to FLAG-AF9 | inhibition, % at 10 µM | 350,000 compounds, 0.47% hits;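 active = every replicate reaching a set inhibition limit, whatever the replicate mean, cut at about 25% in these data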;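 note: 0% = plate neutral control median and 100% = total signal loss; the record names both 10 and 1 µM as test concentration; the first replicate is given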
# Target sequence (P42568 whole entry, looked up): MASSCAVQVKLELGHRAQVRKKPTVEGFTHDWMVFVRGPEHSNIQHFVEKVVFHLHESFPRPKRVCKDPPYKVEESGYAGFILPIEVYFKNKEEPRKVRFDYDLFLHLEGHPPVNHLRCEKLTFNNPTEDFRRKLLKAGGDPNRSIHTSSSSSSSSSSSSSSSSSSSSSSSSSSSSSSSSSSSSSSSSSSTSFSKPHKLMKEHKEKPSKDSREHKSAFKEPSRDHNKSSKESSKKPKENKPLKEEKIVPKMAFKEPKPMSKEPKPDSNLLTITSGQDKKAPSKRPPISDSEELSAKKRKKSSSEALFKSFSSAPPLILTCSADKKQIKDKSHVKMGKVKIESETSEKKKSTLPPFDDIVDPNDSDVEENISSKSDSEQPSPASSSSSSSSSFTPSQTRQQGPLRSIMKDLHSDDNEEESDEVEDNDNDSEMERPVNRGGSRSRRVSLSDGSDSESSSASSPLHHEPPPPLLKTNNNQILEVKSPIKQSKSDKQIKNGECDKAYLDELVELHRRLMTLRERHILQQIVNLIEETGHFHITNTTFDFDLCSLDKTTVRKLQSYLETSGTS
# FGF22 binding = binders of recombinant human FGF22 by thermal shift; Q9HCT0; SYPRO orange fluorescence; percent of sucrose octasulfate shift, DMSO zero; calls only at 9.99 µM; 340,000 compounds, 1.5% hits;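 active = melting point raised past a set limit in the mean and every replicate; three in four hits are not shown here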
# Ecoli rRNA inh OD600 = also measured in Ecoli rRNA inh; calls as there; OD600 change, %; measured here: OD600 growth;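 optical density of the mix in the first replicate; 0 = DMSO median and -100 = no signal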
# Ecoli rRNA inh RFP = recorded beside Ecoli rRNA inh, whose call it bears; RFP signal change, %; measured here: RFP humanized mutant strains;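 first replicate; 0 = DMSO median and -100 = no signal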
# Starred values were filed as active, the others as inactive; i = inactive; . = no result given; & = joins results of further samples. A portion of the library; count on the stated rates, not on these rows.
AF4-AF9 inh	E coli growth	Vif TR-FRET	smiles	Ecoli rRNA inh	FGF22 binding	Ecoli rRNA inh OD600	Ecoli rRNA inh RFP	HNF4A DNA FP	ALR H2O2 inh
.	0.65	-2%	COc1ccccc1NC(=O)CN1CCN(C(=O)c2ccco2)CC1	.	.	.	.	0.0	0
-3.6	.	.	C[C@H](CO)N1C[C@H](C)[C@@H](CN(C)C(=O)c2ccc(F)cc2)OCc2ccccc2-c2ccccc2C1=O	-2	i	-7	0.5	.	.
.	0.75	5%	Cc1nc2nc(C)c(CCC(=O)NCc3ccc4c(c3)OCO4)c(C)n2n1	.	.	.	.	5.0	0
-2.1	0.69	.	COc1cccc2c1Oc1ncccc1N(C(=O)CCC(=O)NCc1ccc(C)cc1)C2	5	i	15	5.7	-1.2	1
.	0.72	24%	CCc1nnc(NC(=O)CCN2C(=O)c3ccccc3S2(=O)=O)s1	.	.	.	.	1.2	.
-12	0.65	.	Cc1ccccc1N=Nc1c(O)n(C)c2ccccc12	17	i	9	3.4	4.9	-17
-6.3	0.67	-9%	CCOC(=O)C(C)Sc1nc2c(c(-c3cccs3)c1C#N)CCC2 (stereo not drawn)	-20	i	-19	2.3	0.9	.
-1.7	.	.	C[C@H](c1ccccc1)N1C[C@@H](COCc2ccccc2)Oc2cccc(N3CCCC3)c2S1(=O)=O	12	i	5	8.5	.	.
.	0.7	0%	C=CCc1c(C)nc(SC)nc1Nc1ccc(C(=O)O)cc1	.	.	.	.	-1.3	-3
.	0.73	i	COc1ccc(C2=NN(S(C)(=O)=O)C(c3ccc4nccnc4c3)C2)cc1 (stereo not drawn)	.	.	.	.	8.3	-1
-3.2	0.65	1%	COc1ccc(-c2c(NC(=O)c3ccco3)oc3c(C)cccc3c2=O)cc1OC	-4	i	3	-3.4	0.6	-1
-5.3	.	.	COc1ccc(NC(=O)Nc2ccc3c(c2)C(=O)N([C@H](C)CO)C[C@H](C)[C@H](CN(C)S(=O)(=O)c2cccs2)OCCCC[C@H](C)O3)cc1	-6	i	1	-1.4	.	.
.	0.8	-4%	O=C1c2ccccc2CN1CCNS(=O)(=O)c1ccc(Cl)cc1	.	.	.	.	-0.8	-2
-0.7	.	.	O=C(C[C@@H]1C[C@H]2c3cc(NS(=O)(=O)c4ccc(F)cc4)ccc3O[C@H]2[C@H](CO)O1)NCc1ccccn1	1	i	-6	0.4	.	.
-2.2	.	.	O=S(=O)(N[C@H]1CC[C@@H](CCn2cc(C3CC3)nn2)O[C@H]1CO)c1ccc(F)cc1	-1	i	1	-1.7	.	.
.	0.72	-3%	Cc1cc(C2C(C#N)=C(N)Oc3n[nH]c(C)c32)c(C)s1 (stereo not drawn)	.	.	.	.	-0.7	18
-0.7	0.64	.	Cc1ccc(S(=O)(=O)Nc2cc3c(C(=O)O)c(C)oc3c3ccccc23)c(C)c1	-3	i	-7	4.3	-5.9	1
.	0.75	0%	CCOC(=O)c1nnc(-c2cccs2)nc1Oc1ccc(Cl)cc1	.	.	.	.	-7.0	92*
0.5	0.68	-3%	CC(C)Sc1nsc2nc(=O)c(/C=C3\C=Nc4ccccc43)c(N)n12	-36	.	-45	-8.8	-2.2	2
-9.2	0.68	2%	COCCN=C1NC(=O)C(CC(=O)Nc2cccc(Cl)c2C)S1 (stereo not drawn)	-1	i	0	3.2	-2.4	-10
3.6	.	29%	Cc1[nH]c2ccccc2c1/C=N/NC(=O)c1cc(-c2cccs2)[nH]n1	-57	i	-80	-23	6.7	-10
-4.1	0.76	2%	Cc1ccc(C(=O)NNC(=O)C2CCN(S(=O)(=O)c3ccc(C)cc3)CC2)cc1	8	i	5	-0.6	2.2	4
-1.2	0.72	1%	O=C(NC1CCCCC1)C1CC(=O)N(c2ccc(Cl)cc2)C1 (stereo not drawn)	0	i	3	-1.7	-1.9	8
.	0.64	16%	Cc1cc(Cl)ccc1NC(=O)CSc1nnc(-c2ccncc2)n1Cc1ccco1	.	.	.	.	6.2	63
3.2	.	.	O=S1(=O)C[C@@H](N2CCN(c3ccccc3)CC2)[C@H](COCc2ccccc2)N1	3	i	-5	0.6	1.5	.

# Brought forward from above: 2 compounds, followed by the next part.
AF4-AF9 inh	E coli growth	Vif TR-FRET	smiles	Ecoli rRNA inh	FGF22 binding	Ecoli rRNA inh OD600	Ecoli rRNA inh RFP	HNF4A DNA FP	ALR H2O2 inh
.	0.64	16%	Cc1cc(Cl)ccc1NC(=O)CSc1nnc(-c2ccncc2)n1Cc1ccco1	.	.	.	.	6.2	63
3.2	.	.	O=S1(=O)C[C@@H](N2CCN(c3ccccc3)CC2)[C@H](COCc2ccccc2)N1	3	i	-5	0.6	1.5	.
-2.6	0.66	2%	Cc1ccc(CNC(=O)COC(=O)Cn2nc(C)c([N+](=O)[O-])c2C)cc1	9	i	13	0.0	3.7	-18
-2.5	.	0%	C=CCN1CCN(c2ccncc2S(=O)(=O)N2CCN(C)CC2)CC1	2	i	-2	3.1	-0.5	.
7.3	.	-6%	O=C(N/N=C/c1ccc(O)c(O)c1)c1cccc(S(=O)(=O)N2CCCCC2)c1	-1	i	8	-6.0	-0.1	99*
-0.9	.	.	C[C@H]1CN([C@@H](C)CO)C(=O)c2cccc(NS(C)(=O)=O)c2O[C@@H]1CN(C)CC1CCCCC1	1	i	-3	-1.0	.	.
-2.8	0.7	18%	Nc1ccc2nc3c(=O)n(CCc4ccccc4)c(=O)[nH]c3nc2c1	42	i	13	-4.6	-111	-1
-0.6	0.7	.	Cc1ccc(C(=O)N2CCNC(=O)C2CC(=O)Nc2ccccc2)cc1 (stereo not drawn)	4	i	10	0.2	1.7	5
.	0.62	-6%	COc1ccc(OCC(=O)Nc2cccc(-c3nc4ccccc4[nH]3)c2)cc1	-24	.	-46	11	1.4	-7
1.7	0.68	26%	O=C1c2cccc3cccc(c23)C(=O)N1CC1CCCO1 (stereo not drawn)	-19	i	-24	-2.7	-1.0	-2
-0.4	0.7	2%	CCCCn1c(N)c(N(CC)C(=O)c2cccc(S(=O)(=O)N3CCN(C)CC3)c2)c(=O)[nH]c1=O	8	i	9	-0.2	1.8	-2
-3.4	.	.	CCCNC(=O)N(C)C[C@@H]1Oc2ncc(C#CCc3ccccc3)cc2C(=O)N([C@H](C)CO)C[C@H]1C	-1	i	2	0.2	.	.
-13	0.64	-7%	CN(C)S(=O)(=O)c1ccc(Cl)c(NC(=O)COC(=O)c2ccc3c(c2)NC(=O)CS3)c1	0	i	-2	-0.8	7.8	.
-0.5	.	.	O=S(=O)(Nc1ncccn1)c1ccc(NC(=S)Nc2ccccc2Cl)cc1	12	i	7	4.5	0.3	2
0.5	0.69	17%	COC(=O)[C@H](Cc1ccccc1)NC(=O)Nc1ccc(OC)cc1	5	i	2	-1.5	-3.3	-7
.	0.68	-1%	O=C(c1cc(S(=O)(=O)N2CCOCC2)c(Cl)cc1Cl)N1CCCCC1	.	.	.	.	0.4	0
-2.6	0.65	-6%	CCC(C(=O)NC1CCCC1)N(Cc1ccccc1Cl)C(=O)c1snc(C(N)=O)c1N (stereo not drawn)	2	i	0	4.9	-1.2	-3
3.1	0.62	6%	Nc1ccc(C(=O)OCC(=O)Nc2cccc(S(=O)(=O)NC3=NCCCCC3)c2)cc1[N+](=O)[O-]	-4	i	-4	2.3	-0.8	-2
-0.8	0.67	0%	CCOC(=O)c1c(-c2ccc(OC)cc2)csc1NC(=O)CSc1nnc(C)c(=O)[nH]1	-4	.	-9	23	-2.7	16
.	0.72	-3%&0%	O=C(CCCNS(=O)(=O)c1cccc2nsnc12)NCc1ccc(F)cc1	.	.	.	.	1.7	-13
.	0.73	2%	O=C1C(=O)N(Cc2cccnc2)C(c2ccccn2)/C1=C(/O)c1ccc(Br)cc1 (stereo not drawn)	.	.	.	.	-1.0	-13
-12	.	.	CCCNC(=O)[C@H]1[C@H](CO)[C@H]2Cn3c(cccc3=O)[C@@H]1N2Cc1cccc(Cl)c1	1	i	-9	-3.9	.	.
-33	0.66	-6%	C=C(C)Cn1c(CCCNC(=O)CC)nc2ccccc21	3	i	2	-2.9	1.9	-2
-1.0	0.7	.	O=C(CCc1nnc(C2(c3ccc(Cl)cc3)CCC2)o1)N1CCCC1	3	i	3	0.5	-0.4	-51
-8.7	0.7	.	O=C(CN(C(=O)CCC(=O)Nc1nccs1)c1ccc2c(c1)OCO2)NCc1ccccc1	7	i	11	-2.8	0.5	1
.	0.69	1%	C#CCSc1nnc(-c2cccc3ccccc23)o1	.	.	.	.	-1.8	97*
-10	0.69	.	COCCCNc1nc(-c2ccc(Cl)cc2)nc2ccccc12	-44	i	-73	-8.1	3.0	0
-3.0	0.7	-7%	CC(C)c1ccc(NC(=O)c2n[nH]c(=O)c3ccccc23)cc1	4	i	2	0.6	-2.0	.
5.9	0.66	-2%	CN(CC(=O)Nc1cccc(F)c1)C(=O)c1ccccc1Sc1ccccc1C#N	-12	i	-23	-0.2	1.3	-5
.	0.66	9%	CCCN(CCC)C(=O)CSc1nc2ccccc2c(=O)n1CC1COc2ccccc2O1 (stereo not drawn)	2	.	9	-3.4	4.2	.
0.8	0.67	-6%	CCOc1ccc(C(=O)N2CCc3ccccc32)cc1	-22	i	-20	-3.8	0.8	-12
2.3	0.7	.	O=C(NCc1ccc(F)cc1)C1(S(=O)(=O)c2ccc(Cl)cc2)CC1	2	i	2	-3.4	0.3	.
-0.6	0.66	.	CC1(c2ccc3ccccc3c2)NC(=O)N(CC(=O)O)C1=O (stereo not drawn)	10	i	11	0.1	-1.1	-3
.	0.69	.	c1ccc(Cn2c(-c3ccccc3)nc3nc4ccccc4nc32)cc1	.	.	.	.	-1.4	-3
-1.0	.	.	COc1ccc(NC(=O)N(C)C[C@H]2OCCCC[C@@H](C)Oc3ccc(NS(=O)(=O)c4cccs4)cc3C(=O)N([C@H](C)CO)C[C@@H]2C)cc1	0	i	7	-2.8	.	.
-3.4	0.67	.	COc1ccc(-c2cc3ncccc3cn2)cc1	-7	i	2	-6.7	2.7	23
0.1	.	.	COc1ccc2c3c([nH]c2c1)[C@H](CO)N(Cc1ccccc1F)CC31CN(C(=O)C2CCC2)C1	-8	i	-13	4.6	.	.
3.3	0.72	-1%&-4%	CC(c1nnc(SCC(=O)NC(=O)NCc2ccco2)n1-c1ccc(Cl)cc1)N(C)C (stereo not drawn)	-2	i	-4	-6.6	-5.6	1
-1.3	0.59	.	COc1cc2sc(C)nc2cc1C	11	i	18	0.2	-0.7	-3
-2.4	0.71	-6%	Cc1onc(-c2ccccc2Cl)c1C(=O)N1CCCC1	13	i	7	-0.5	0.1	.
-1.6	0.7	-1%	COC(=O)CC1=C(c2ccc([N+](=O)[O-])cc2)CCC1=O	-19*	i	-2.1*	-2.2*	-1.5	.
-0.8	0.68	5%	CCCNc1ncnc2nc[nH]c12	8	i	14	0.7	0.1	0

# Record cards, from the list above.
# Shown for COC(=O)CC1=C(c2ccc([N+](=O)[O-])cc2)CCC1=O → AF4-AF9 inh: -1.6; E coli growth: 0.7; Vif TR-FRET: -1%; Ecoli rRNA inh: -19*; FGF22 binding: i; Ecoli rRNA inh OD600: -2.1*; Ecoli rRNA inh RFP: -2.2*; HNF4A DNA FP: -1.5; ALR H2O2 inh: .
# Shown for O=S(=O)(N[C@H]1CC[C@@H](CCn2cc(C3CC3)nn2)O[C@H]1CO)c1ccc(F)cc1 → AF4-AF9 inh: -2.2; E coli growth: .; Vif TR-FRET: .; Ecoli rRNA inh: -1; FGF22 binding: i; Ecoli rRNA inh OD600: 1; Ecoli rRNA inh RFP: -1.7; HNF4A DNA FP: .; ALR H2O2 inh: .
